D2 agonist: agonists of human D2 dopamine receptor (beta-arrestin); P14416; DiscoveRx PathHunter D2 beta-arrestin, luminescence, 90 min; 100% = 57 uM dopamine signal; activation, % (concentration not given with the values); hit rate 0.084% among 360,000; in the data active = activation above about 40%; inconclusive = about 15% to 40%; inactive = below about 15%; note: compound concentration not given in the record; the text of the record calls up to 30% inactive
Target sequence (P14416 whole entry, looked up): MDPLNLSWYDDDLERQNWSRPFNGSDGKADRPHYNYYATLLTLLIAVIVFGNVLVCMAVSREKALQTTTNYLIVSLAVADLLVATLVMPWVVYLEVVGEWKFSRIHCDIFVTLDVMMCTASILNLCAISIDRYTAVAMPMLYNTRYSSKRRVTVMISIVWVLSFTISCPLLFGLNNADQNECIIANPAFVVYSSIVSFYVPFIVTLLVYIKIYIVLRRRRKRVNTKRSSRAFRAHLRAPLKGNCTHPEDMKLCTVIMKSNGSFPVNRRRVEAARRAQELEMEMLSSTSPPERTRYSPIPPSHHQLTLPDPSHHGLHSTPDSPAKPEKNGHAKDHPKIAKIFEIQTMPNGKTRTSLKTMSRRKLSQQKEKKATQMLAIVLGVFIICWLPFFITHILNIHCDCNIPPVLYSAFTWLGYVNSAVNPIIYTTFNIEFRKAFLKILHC
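DiscoveRx PathHunter D2 beta-arrestin cells (2,100/well) attached overnight, then compound-stimulated 90 min at 37 C in HBSS/10 mM HEPES/0.1% Tween-20 buffer; beta-galactosidase complementation read by luminescence after 1 h at ambient temperature. Dopamine 57 uM final (EC100) as control.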
D2 PAM: positive allosteric modulators of human D2 dopamine receptor; P14416; DiscoveRx D2 beta-arrestin cells, luminescence, 90 min; 100% = 57 uM dopamine signal; potentiation, % (test concentration not listed); hit rate 0.23% among 360,000; AID 624464; active = potentiation of 50% or more; inconclusive = 30% to 50%; inactive = 30% or less;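 note: compound concentration not given in the record; tested on top of an EC20 dose of dopamine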
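D2 cells co-treated with compound plus 50 nM dopamine (EC20) for 90 min at 37 deg C to detect potentiation. Beta-arrestin recruitment was read as enzyme-fragment luminescence after 1 h at ambient temperature. Full response was set by 57 uM dopamine.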
Six1-Eya2 blk: blocks human Six1 binding to Eya2. AlphaScreen GST-Six1/His-Eya2 binding, biochemical; stronger effect = lower value; control for the full effect not named in the record. Q15475+O00167. hit rate 0.56% among 360,000. activity change, % (concentration not given with the values). AID 651725; in the data active = activity change below about -65%; inconclusive = about -30% to -65%; inactive = above about -30%; note: % is set by controls: 0 for no effect and ±100 for the full control effect
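GST-Six1 + His-Eya2 (5X stock: 250/500 nM); Tris pH 8.0, 300 mM NaCl, 0.05% BSA, 0.02% Tween 20; GSH donor/Ni acceptor beads; 1 h 37 °C dark; AlphaScreen readout.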
TRPML1 ag: activates the human TRPML1 channel; hit rate 0.12% among 410,000; activation, % (no concentration beside the values); Q9GZU1; TRPML1-expressing cells, Ca2+ dye fluorescence, FDSS; host cell line not named in the record; reference of the full effect not given here; in the data active = activation above about 50%; inconclusive = about 30% to 50%; inactive = below about 30%; note: 0% is about no effect; the text of the record puts the active cut at 80%
Target sequence (Q9GZU1 whole entry, looked up): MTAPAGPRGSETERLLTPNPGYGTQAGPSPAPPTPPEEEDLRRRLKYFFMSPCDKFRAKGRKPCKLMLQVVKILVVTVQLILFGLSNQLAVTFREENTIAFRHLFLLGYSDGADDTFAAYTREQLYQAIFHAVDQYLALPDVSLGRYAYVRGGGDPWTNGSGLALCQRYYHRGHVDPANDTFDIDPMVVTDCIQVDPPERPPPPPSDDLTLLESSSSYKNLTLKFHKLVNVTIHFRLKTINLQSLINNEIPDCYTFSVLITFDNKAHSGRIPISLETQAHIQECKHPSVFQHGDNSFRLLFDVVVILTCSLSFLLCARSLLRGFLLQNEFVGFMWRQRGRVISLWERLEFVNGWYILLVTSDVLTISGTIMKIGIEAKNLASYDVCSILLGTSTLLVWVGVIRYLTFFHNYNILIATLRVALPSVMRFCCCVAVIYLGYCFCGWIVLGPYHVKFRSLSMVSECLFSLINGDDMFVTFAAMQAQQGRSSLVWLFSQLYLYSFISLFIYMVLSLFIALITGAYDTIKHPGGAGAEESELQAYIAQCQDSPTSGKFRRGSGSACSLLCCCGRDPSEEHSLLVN
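Tetracycline-induced TRPML1-DL cells are seeded and incubated overnight before loading with a no-wash Ca2+ dye and quencher. Agonist activity is taken from the 110 s fluorescence read following compound pin-transfer on an FDSS, before EC80 54-4 challenge.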
PINK1 expr mod: modulators of PINK1 expression. Potency, µM (series often up to 76.6 µM), for inactives: at the highest dose activation (PINK1 increase), most hits filed as activators. hit rate 0.2% among 410,000. PINK1 immunofluorescence, high-content cytometry, 24 h; active = well fitted activation curve with a large enough effect; inconclusive = small, poorly fitted or top-dose-only effect; inactive = flat fitted curve, though single readings scatter; cell line not stated here;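 note: potency is the fitted concentration of half-maximal effect; % of control where 0% means no effect; nearly all actives have a fitted effect of over 65% in size; a mitochondrial uncoupler was the plate control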
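Readout is PINK1 immunofluorescence, quantified alongside mitochondrial, cell and nuclear markers by laser-scanning microplate cytometry. Cells from a stable line were exposed to compound titrations (5 concentrations) for 24 hours, with CCCP controls.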
CtBP-E1A inh: inhibitors of CtBP/E1A interaction; AlphaScreen GST-E1A/His-CtBP binding, 1536-well; stronger effect = lower value; control for the full effect not named in the record; activity change, % (no concentration beside the values); AID 651724; hit rate 0.49% among 340,000; in the data active means activity change below about -65%; inconclusive means about -30% to -65%; inactive means above about -30%; note: % is set by controls: 0 for no effect and ±100 for the full control effect; compound concentration not given in the record
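Homogeneous bead-based format: GST-tagged E1A captured on glutathione donor beads, His-tagged CtBP on nickel acceptor beads; compounds precede bead addition by 2 h at 37 °C.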
* = called active by the depositor; ? = inconclusive; . = not tested or not shown; & = joins results of further samples; [ ] = dose if it differs, or a comment.

SMILES	D2 agonist	D2 PAM	Six1-Eya2 blk	TRPML1 ag	PINK1 expr mod	CtBP-E1A inh
Cc1ccccc1N1CCN(C2CCCN(C(=O)CCc3c(C)noc3C)C2)CC1 (configuration not stated)	2.4	7	5	0.0	3.0%	-4
COc1cccc(CC(=O)N2CCCC(CO)(Cc3ccc(F)cc3F)C2)c1 (configuration not stated)	-2.3	-4	0	-0.1	-0.5%	.
Nc1c(C(=O)OCC(=O)Nc2ccc(Cl)cc2[N+](=O)[O-])[nH]c(=O)[nH]c1=O	-2.5	-4	0	-0.4	-0.1%	.
Cc1csc(N/N=C/c2ccccc2F)n1	0.3	-1	-12	-0.7	2.5%	-9
COc1ccc(NC(=O)CSc2n[nH]c(-c3ccccc3)n2)cc1S(N)(=O)=O	-3.3	-4	-6	0.7	0.0%	-6
CCCS(=O)(=O)N1CCN(CC2CC3C=CC2C3)CC1 (configuration not stated)	-0.3	6	9	-0.4	0.0%	5
CCCCNC(=O)C1(c2ccc(OC)cc2)CCOCC1	-1.6	4	12	-0.5	15%[38.3 µM]	11
COc1ccc(OC)c(NC(=O)CSc2nc3ccccc3c(=O)n2CC2CCCO2)c1 (configuration not stated)	-2.6	0	-14	-0.8	-0.5%	-13
CCOC(=O)C1(CC2CC2)CCN(Cc2ccc3cccc(F)c3n2)CC1	1.9	-10	-8	2.8	14%	3
Cc1ccc(S(=O)(=O)N2CCC(C(=O)OCC(=O)N(C)C3CCCCC3)CC2)cc1C	-1.2	28	-1	1.8	-3.0%	2
O=C(COC(=O)c1ccc(S(=O)(=O)NCc2ccco2)cc1)Nc1ccccc1OC(F)F	1.1	-24	-2	2.1	0.5%	-2
O=C(NNc1cccc(Cl)n1)c1ccccc1CC[N+](=O)[O-]	-5.5	-6	3	1.5	0.5%	7
CN(C)C(=O)N1CCCC(C(=O)NCCc2ccccc2)C1 (configuration not stated)	-1.8	-13	7	3.7	2.2%[38.3 µM]	4
O=C(NNS(=O)(=O)c1ccc([N+](=O)[O-])cc1)C1CCCCC1	-5.4	-6	2	0.1	1.8%	-16
Cc1cc(C)c2cc(CN(CC3CCCO3)C(=S)NCc3ccco3)c(=O)[nH]c2c1 (configuration not stated)	1.6	0	-11	3.9	0.7%	3
Cc1ccc2cc3cc(C(=O)N4CCN(C(=O)c5ccco5)CC4)sc3nc2c1	0.3	9	-13	-0.5	4.7%	-7
Cc1ccc(S(=O)(=O)NCCSc2nnc(N)s2)cc1	-0.3	-4	4	-1.6	-1.7%	1
CC(NCC(O)COc1ccc2ccccc2c1)c1ccccc1 (configuration not stated)	-1.8	-17	-1	0.5	-3.7%	-6
CN1/C(=C/C(=O)COC(=O)CN2C(=O)C3CC=CCC3C2=O)C(C)(C)c2ccccc21 (configuration not stated)	1.2	-6	2	-1.1	0.6%	-4
COc1cc(C2C=C(C34CC5CC(CC(C5)C3)C4)NC(=S)N2)cc(OC)c1OC (configuration not stated)	-8.6	-5	-20	0.8	12%	-2
O=C(NC1CCSc2ccccc21)c1cccc([N+](=O)[O-])c1 (configuration not stated)	2.4	-33	-9	1.6	-0.8%	4
COc1cccc(NC(=O)COC(=O)CCC2CCCC2)c1	-3.3	-11	5	-0.9	0.9%	3
O=C(COC(=O)c1n[nH]c(=O)c2ccccc12)Nc1ccccc1F	-6.3	-4	1	-0.4	1.5%	16
O=C(Nc1cccnc1)c1cc(-c2ccc(Cl)c(Cl)c2)on1	1.6	0	33	1.0	9.3%	2
C=CCN(c1ccccc1OC)S(=O)(=O)c1cccc(C(=O)OCC(=O)c2c[nH]c3ccccc23)c1	1.2	2	-12	0.2	6.0%	6
CC(C)CN(CC(C)C)c1nn[nH]n1	-2.9	-2	5	-0.5	-0.8%	6
CC1CC(C)CN(S(=O)(=O)c2ccc(NC(=O)c3ccc(=O)[nH]c3)cc2)C1 (configuration not stated)	1.6	-1	3	0.0	16%	9
N#Cc1c(-c2ccccc2)nc(SCc2cccc(Cl)c2)[nH]c1=O	1.7	1	3	1.1	2.7%	7
COc1ccc(S(=O)(=O)C(C#N)c2nc3ccccc3nc2N2CCCCC2)cc1 (configuration not stated)	2.6	23	0	1.3	-0.6%	-6
CC(=O)C1C(=O)C=C(c2cccs2)CC1c1ccccc1 (configuration not stated)	-5.2	-8	9	0.9	6.1%	9
O=C(Cn1cnnn1)Nc1cccc(S(=O)(=O)N2CCCCC2)c1	0.1	4	-5	-0.4	0.4%	0
CCSc1oc(-c2cccs2)nc1S(=O)(=O)c1ccccc1	-0.8	-4	11	0.2	3.2%	18
O=C(CN(C(=O)c1csnn1)c1ccc(F)cc1)NCc1ccc2c(c1)OCO2	-1.2	-5	-7	0.1	2.0%	-10
O=C(CSc1nc2c(cnn2-c2cccc(Cl)c2)c(=O)[nH]1)NCC1CCCO1 (configuration not stated)	8.2	1	5	2.5	-0.7%	4
COc1ccc(C(O)c2ncc(-c3ccc4ccccc4c3)[nH]2)cc1 (configuration not stated)	-5.9	-9	-21	-1.3	1.6%	-7
O=C1c2cc3c(cc2CCC1c1ccc2c(c1)OCO2)OCO3 (configuration not stated)	1.9	0	-9	0.6	0.0%	3
COc1ccc(N(CC(=O)NCc2ccc(F)cc2)S(=O)(=O)c2c(C)n[nH]c2C)cc1	0.9	-3	4	-0.4&-1.3	-0.6%&0.2%	1
CN(CC(=O)Nc1ccc(F)cc1)CC(=O)N1CCCCC1	-2.6	-4	-1	-0.5	-1.6%	.
CN(C(=S)Nc1ccc(F)cc1)C(c1ccccc1)c1ccccc1	7.4	-2	2	3.9	3.3%	6
CC(O)C(NS(=O)(=O)c1ccc(Cl)cc1)C(=O)OCC(=O)c1c[nH]c2ccccc12 (configuration not stated)	1.7	-1	1	0.4	2.6%	3
COc1ccc(C(C)=O)cc1COc1ccc([N+](=O)[O-])c(C)c1	-22	-5	0	1.1	0.3%	1
O=C(COC(=O)c1cccnc1Cl)NC(=O)NC1CCCCC1	-1.1	-6	-1	0.4	-1.2%	2
CCOc1ccc2[nH]c(=O)c(CN(CCO)C(c3nnnn3C3CCCCC3)C(C)C)cc2c1 (configuration not stated)	2.4	9	3	-1.2	4.0%	-2
CCn1c(=N)n(CC(O)c2cccs2)c2ccccc21 (configuration not stated)	-5.5	-11	4	0.4	0.4%	.
COc1ccc(OC)c(/C=N\NC(=O)c2ccc(=O)n(C)c2)c1	-3.1	4	-2	-0.2	4.6%	-14
CCOC(=O)C1(C(=O)O)NC(=O)CC1c1ccccc1 (configuration not stated)	-0.9	-2	3	0.7	-2.9%[38.3 µM]	3
CC(Oc1ccc(Cl)cc1Cl)c1nc(-c2ccc(NC(=O)c3ccncc3)cc2)no1 (configuration not stated)	4.1	9	-4	0.8	?	-3
COc1cc2c(cc1OC)C(C(=O)Nc1ccc3c(c1)OCCO3)C(c1cccnc1)N(C)C2=O (configuration not stated)	-0.2	-15	11	0.6	0.4%	-13
COc1ccc(-c2cc(C(=O)OCC(=O)N3CCCC3)c3ccccc3n2)cc1	-2.2	-13	15	-1.3	-1.1%	14
CC1(C)NC(=O)N(CC(=O)N2CCC(Cc3ccccc3)CC2)C1=O	4.5	-3	6	0.9	-0.3%	5
CCOC(=O)C1(Cc2ccccc2)CCN(Cc2cc(OC)c3c(c2)OCO3)CC1	-0.3	-12	-7	2.4	7.3%	-6
CC(=O)N1CCN(CC(C)(C)NS(=O)(=O)c2ccccc2)CC1	-1.5	-1	5	2.7	1.3%	-10
Cc1cc(C)c(C#N)c(SCC(=O)c2ccccc2)n1	5.1	4	22	2.5	6.6%	14
COc1cccc(C(=O)Nc2cc(Cl)c(O)c(Cl)c2)c1	-4.1	-14	-7	-0.5	2.2%	-18
CC1CN(C(=S)NC(=O)c2ccc([N+](=O)[O-])cc2)CC(C)O1 (configuration not stated)	-2.2	-2	6	-0.7	-0.4%	3
O=C(NC(Cc1c[nH]c2ccccc12)c1nnc2n1CCCCC2)c1ccccc1Cl (configuration not stated)	0.4	-2	4	2.7	5.8%[38.3 µM]	-1
O=C1Nc2c(Br)cc(Br)cc2C1(O)N1CCOCC1 (configuration not stated)	-3.4	1	-4	-0.4	3.1%	0
COc1cccc(CNC(=O)C(CCSC)NS(=O)(=O)c2ccc3c(c2)oc(=O)n3C)c1 (configuration not stated)	-1.6	-13	-9	-0.9	4.1%	-1
N#CCC(=O)Nc1ccc(C(=O)Nc2cccc(S(=O)(=O)N3CCCC3)c2)cc1	-2.1	-14	-10	-0.6	2.8%	0
Nn1c(SCC(=O)NCC2CCCO2)nnc1-c1ccco1 (configuration not stated)	-2.6	-6	0	-0.4	0.8%	0

Profiles, quoted from the list. Screens in order: D2 agonist, D2 PAM, Six1-Eya2 blk, TRPML1 ag, PINK1 expr mod, CtBP-E1A inh
Results for `COc1ccc(-c2cc(C(=O)OCC(=O)N3CCCC3)c3ccccc3n2)cc1` : -2.2, -13, 15, -1.3, -1.1%, 14
Results for `CC(=O)N1CCN(CC(C)(C)NS(=O)(=O)c2ccccc2)CC1` : -1.5, -1, 5, 2.7, 1.3%, -10
Results for `COc1cccc(CNC(=O)C(CCSC)NS(=O)(=O)c2ccc3c(c2)oc(=O)n3C)c1` (configuration not stated) : -1.6, -13, -9, -0.9, 4.1%, -1
Results for `COc1cccc(C(=O)Nc2cc(Cl)c(O)c(Cl)c2)c1` : -4.1, -14, -7, -0.5, 2.2%, -18

Part of the list above, limited to Six1-Eya2 blk, PINK1 expr mod and D2 agonist.
structure,Six1-Eya2 blk,PINK1 expr mod,D2 agonist
CC(C)CN(CC(C)C)c1nn[nH]n1,5,-0.8%,-2.9
O=C(COC(=O)c1cccnc1Cl)NC(=O)NC1CCCCC1,-1,-1.2%,-1.1
CCCS(=O)(=O)N1CCN(CC2CC3C=CC2C3)CC1 (configuration not stated),9,0.0%,-0.3
CCOC(=O)C1(C(=O)O)NC(=O)CC1c1ccccc1 (configuration not stated),3,-2.9%[38.3 µM],-0.9

The listing continues:
SMILES	D2 agonist	D2 PAM	Six1-Eya2 blk	TRPML1 ag	PINK1 expr mod	CtBP-E1A inh
CCc1cc2c(NCCC(=O)O)nc(C)nc2s1	-1.4	0	8	-0.6	0.0%	3
CNC(=S)NCCc1ccccc1	1.1	-12	-3	-0.3	0.9%	0
CSc1c(C#N)c(N)c(C#N)c2c1COC(C)(C)C2	-1.1	-3	6	1.1	-6.1%[38.3 µM]	9
Cc1ccc(NC(=O)Nc2ccc3c(c2)OCO3)c(OC(F)F)c1	-6.3	-36	1	0.1	-0.1%	-5
CC1(C)N=C(N)N=C(N)N1c1ccc(OCC(=O)N2CCOCC2)c(Cl)c1	-3.6	0	-2	0.4	-0.3%	2
COc1cccc(C(=O)NCCS(=O)(=O)NC2CCCC2)c1	-5.8	-46	2	1.2	-0.5%	-3
Cc1nc2sc(C(c3cccs3)N3CC(C)CC(C)C3)c(O)n2n1 (configuration not stated)	1.3	-3	2	-0.4	0.2%	-3
O=C(COc1ccccc1)Nc1nnc(S(=O)(=O)N2CCCC2)s1	-5.7	-8	-1	-0.6&1.2	-0.2%&0.8%	4
CCN(CC)S(=O)(=O)c1cccc(C(=O)N/N=C(\C)c2cccs2)c1	-3.0	-10	1	-0.4	-1.1%	-17
